# Source: PubChem
# HSD17B inh: blocks hydroxysteroid 17-beta dehydrogenase activity. recombinant HSD17B10, NADH fluorescence kinetic; many of its hits are not listed in these tables. 7.6% of 75,000 active. Potency, µM (titrated, usually from 57.1 µM), inactives show at the top dose activity change, negative = inhibition, hits mostly inhibitors. Q99714; active = well fitted inhibition curve with a large enough effect; inconclusive = small, poorly fitted or top-dose-only effect; inactive = no such curve, though single readings can be large or run the other way;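 note: the protocol describes HADH2 (HSD17B10) and not the HSD17B4 of the title; nearly all actives have a fitted effect of over 70% in size; most hits overshoot -100% by far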
#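 Activity followed as NADH fluorescence increase (ex 360, em 450 nm) every 30 seconds for 4 min, using final 90 uM beta-hydroxybutyryl CoA and 1 mM NAD+. Recombinant His-tagged enzyme, 20 nM, pH 9.0 Tris buffer, 15 min compound preincubation.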
# * hit, by the source's call; ? = inconclusive; [ ] = dose if it differs, or a comment. % is set by controls: 0 for no effect and ±100 for the full control effect; potency is the fitted concentration of half-maximal effect. This is a subset; count on the stated rates, not on these rows.
# Preview, 4 compounds:
SMILES | HSD17B inh
CCOc1ccc(CCNC(=O)C(CC)n2nc(C)n3c(cc4sccc43)c2=O)cc1OCC (stereo not drawn) | -7%
Cc1ccc(OCCn2c(C)c(/C=N/n3cnnc3)c3ccccc32)cc1 | 0%
CN1C(=O)N(C)C2CC1N(C)C(=O)N2C | -18%
CCOC(=O)c1c(C)[nH]c(C(=O)COC(=O)c2cn(CC)c3nc(C)ccc3c2=O)c1C | 9%

# The list itself, repeating the preview:
SMILES | HSD17B inh
CCOc1ccc(CCNC(=O)C(CC)n2nc(C)n3c(cc4sccc43)c2=O)cc1OCC (stereo not drawn) | -7%
Cc1ccc(OCCn2c(C)c(/C=N/n3cnnc3)c3ccccc32)cc1 | 0%
CN1C(=O)N(C)C2CC1N(C)C(=O)N2C | -18%
CCOC(=O)c1c(C)[nH]c(C(=O)COC(=O)c2cn(CC)c3nc(C)ccc3c2=O)c1C | 9%
O=C(Oc1ccc2ccc(OC(=O)N3CCOCC3)cc2c1)N1CCOCC1 | -3%
CCOC(=O)N1CCN(c2nc(C)cc(C(F)(F)F)n2)CC1 | -3%
CCOC(=O)c1c(-c2ccc(OC)cc2)nc2nonc2c1N | -17%
CO/N=C(\C)CCN1CCCCc2nc(C)c(C)cc21 | 2%[11.4 µM]
Cc1c(N2C(=O)CSC23C(=O)Nc2ccccc23)c(=O)n(-c2ccccc2)n1C (stereo not drawn) | 10%
CCC(C)c1ccc(O)c(N)c1 (stereo not drawn) | 7.9µM*
COc1ccc(OC)c(C(c2nnnn2C(C)(C)C)N2CCc3ccccc3C2)c1 (stereo not drawn) | -5%
CC(=O)N(CN1C(=O)c2ccccc2C1=O)c1cccc(C)c1 | -4%
Cc1cc(C)c(C(=O)CN2C(=O)CCC2=O)cc1C | 0%
C=C1CSc2nc(=O)c3c(C)c(C)sc3n21 | 3%
CN(C)c1ccc(/C=N\NC(=O)c2cnc3ccccc3c2)cc1 | 3%[11.4 µM]
Cc1cc(Nc2ccccc2C(=O)O)nc2nc3ccccc3c(=O)n12 | 1%
CN(c1ccccc1C(N)=O)S(=O)(=O)c1ccccc1 | 9%
CN1CCN(C2=C(Cl)C(=O)N(c3ccc(Cl)c(Cl)c3)C2=O)CC1 | -15%
CN1CCCN(C(=O)c2cc(=O)[nH]c3ccccc23)c2nc3ccccc3nc21 | -2%
CC(=O)c1ccc(NC(=O)N2CCN(c3cccc(Cl)c3)CC2)cc1 | 0%
CC(C)c1nc(=S)n(-c2ccccc2)[nH]1 | 4%
CCc1ccc2oc(-c3cc(N)cc(C)c3O)nc2c1 | ?
COc1ccccc1C(=O)OCn1nnc2ccccc2c1=O | 22%
O=C(O)c1cc(C(=O)O)cc(N2C(=O)c3ccccc3C2=O)c1 | 6%[11.4 µM]
COc1ccc(C[C@@H]2C(=O)N[C@H](C)C(=O)N(C)[C@@H]3Cc4ccc(cc4)Oc4cc(ccc4O)C[C@H](C(=O)N[C@@H](C)C(=O)N[C@H](C)C(=O)N2C)N(C)C3=O)cc1 | -3%[11.4 µM]
CCn1c(=NC(=O)CSC(C)=O)sc2ccccc21 | 2%
CCCc1nc(SCC(=O)N2CCCC2)c2ccccc2n1 | 3%
O=C(Nc1ccc2c(c1)oc1ccccc12)C1CC1 | -83%
COc1ccc(CNc2nc3ccccc3n2CCN2CCCCC2)c(OC)c1 | 25µM*
N#Cc1ccc(CN2CCCC3(CCN(C(=O)c4ccncc4)CC3)C2)cc1 | 5%
COc1ccc(OC)c(S(=O)(=O)N2c3cc(F)ccc3CCC2C)c1 (stereo not drawn) | -3%
Cc1ccc(C(C)C)c(Oc2nnnn2-c2ccccc2)c1 | -8%
CC(C)CCNC(=O)CCNS(=O)(=O)c1ccc(Cl)cc1 | 11%
O=C(NC1CCCCC1)c1ccc(S(=O)(=O)N2CCOCC2)cc1 | 1%
O=C(NCc1ccccn1)c1c(O)c2c([nH]c1=O)CCCC2 | -3%
O=C(Nc1ccc(NC(=O)C2CC2)nc1)c1ccco1 | 0%
Cc1c(Cl)cccc1NC(=O)CC(C(=O)O)C1CCCO1 (stereo not drawn) | -3%
N#CC1=C(N)OC2=C(C(=O)CCC2)C12CCN(C(=O)OCc1ccccc1)CC2 | ?
CCCc1cc(C(N)=O)c(NC(=O)C2CCCO2)s1 (stereo not drawn) | 32µM*
Cc1ccc(NC(=O)c2cc(C)on2)cc1 | 4%
COc1ccc(NC(=O)N2CCC3(CC2)CCN(C(=O)c2ccncc2)CC3)cc1 | 9%
CSc1ccc(-c2nnn(Cc3ccc(C)cc3)n2)cc1 | -18%
CCOc1ccc(Nc2ncnc3c2cnn3-c2ccccc2)cc1 | ?
c1cncc(-c2cncnc2NC2CCNCC2)c1 | ?
CCS(=O)(=O)NCC(c1cccnc1)N1CCN(c2ccc(F)cc2)CC1 (stereo not drawn) | 5%
Cc1cc(C(=O)N2CCOCC2)n(-c2ccccc2)n1 | 3%
CCCCNc1nc(C)nc2c1nc(-c1ccccc1)n2CCCN(C)C | 32µM*
CCOC(=O)C1=C(C)NC2=C(C(=O)CCC2)C1c1cccs1 (stereo not drawn) | -11%
COc1ccc(C)cc1S(=O)(=O)Nc1cccc(SC)c1 | -4%
Cc1noc(C)c1COC(=O)CCC(=O)c1ccc(F)cc1 | -8%

# Next records follow:
SMILES | HSD17B inh
COc1cccc(C2C(C(=O)c3cccs3)=C(O)C(=O)N2CCCn2ccnc2)c1OC (stereo not drawn) | 7%
CN1CCCN([C@@H](c2ccccc2)c2ccc(Cl)cc2)CC1 | -5%[25.6 µM]
CC(=O)OCC1OC(n2cnc3c(=O)[nH]cnc32)C(OC(C)=O)C1OC(C)=O (stereo not drawn) | -1%
COc1ccc(N(CC(O)CN2CCCCC2)S(=O)(=O)c2ccc(C)cc2)cc1 (stereo not drawn) | 3%
CC(C)(C)n1ncc2c(=O)n(CC(=O)N3CCc4ccccc43)cnc21 | 7%
CCOC(=O)Cc1csc(NC(=O)c2ccc3c(c2)OCO3)n1 | 1%
Cc1c(NS(C)(=O)=O)c(=O)n(-c2ccccc2)n1C | 7%
Cc1[nH]c2ccc(-c3nnc(SCC(=O)N4CCCc5ccccc54)o3)cc2c1C | 8%
O=C(O)C1CCCN1S(=O)(=O)c1cccc2cccnc12 (stereo not drawn) | 7%
O=C(c1ccco1)N1CCC2(CC1)CN(c1ccccc1)C2 | 2%
C=CCn1c(SCc2nc3c(c(=O)[nH]c(=O)n3CCCC)n2CCC)nnc1-c1ccccc1 | 7%
Cc1sc2nc(SCC(=O)c3cc(C)n(CC4CCCO4)c3C)n(C(C)C)c(=O)c2c1C (stereo not drawn) | ?
CCOC(=O)CCN1C(=O)[C@H]2[C@H]3[C@H](O)[C@H](O)C/C(=N/O[C@@H]4O[C@@H](COC(C)=O)[C@@H](OC(C)=O)[C@@H](OC(C)=O)[C@H]4OC(C)=O)[C@@H]3CC[C@@H]2C1=O | 7%[11.4 µM]
C=CC[C@@H]1C=C[C@@H](O/N=C\[C@@H](OC)[C@H](C)/C=C\CC(=O)OC)[C@@H](CO)O1 | 2%[11.4 µM]
COc1ccc(N2C(=O)CCC(C(=O)N3CCC(C(N)=O)CC3)C2c2ccc(F)cc2)cc1 (stereo not drawn) | 9%
COc1ccc(-c2coc3ccc(OC4OC(COC(C)=O)C(OC(C)=O)C(OC(C)=O)C4OC(C)=O)cc3c2=O)cc1 (stereo not drawn) | -9%
CC1CN(C(=O)Cn2cnc3c2c(=O)n(C)c(=O)n3C)CC(C)O1 (stereo not drawn) | 12%
COCCn1c(CN2CCN(c3ccc(OC)cc3)CC2)nc2c1c(=O)n(C)c(=O)n2C | 1%
O=C(O)c1cc(Cl)cc(Cc2cc(Cl)cc(C(=O)O)c2O)c1O | 2.5µM*
Cc1ccccc1-c1cncnc1NCc1cccs1 | 4%

# New compounds follow
compound,HSD17B inh
Cc1ccc(S(=O)(=O)N2CCOCC2)cc1C(=O)Nc1c(C)n(C)n(-c2ccccc2)c1=O,0%
O=C(O)CCC(=O)N1CCN(c2nc3ccccc3s2)CC1,10%
COc1ccc(CNC(=O)CSc2nnnn2Cc2ccccc2)cc1,-6%
CCOc1ccc2[nH]c(=O)c(CN(Cc3nnnn3CCc3ccccc3)CC3CCCO3)cc2c1 (stereo not drawn),?
CC1CCN(S(=O)(=O)c2ccc(Br)s2)CC1,0%
Cc1ccccc1N1C(=O)c2cccc3c(N(C)CCO)ccc(c23)C1=O,34%[activator]
CC(=O)OC(C(=O)NCc1ccc2c(c1)OCO2)c1ccccc1Cl (stereo not drawn),3%
CCCN(CCC)CCNC(=O)c1cc2c(=O)n(C)c3ccccc3c2n1C,32µM*
c1ccc(CNc2ncncc2-c2ccoc2)cc1,-14%
CCC(C)(C)NC(=O)C(c1ccccc1F)N(Cc1ccco1)C(=O)c1csnn1 (stereo not drawn),-1%
Cc1ccc(C)c(SCC(=O)OCC(=O)Nc2ccc(S(=O)(=O)N3CCOCC3)cc2)c1,-4%
CCC(=O)NCCC1CCc2ccc3c(c21)CCO3 (stereo not drawn),-1%
COC(=O)C1=C(CSc2nnnn2C)NC(=O)NC1c1cc(C)ccc1C (stereo not drawn),15%
Cn1nnnc1SCCNS(=O)(=O)c1ccccc1,8%
CCCCCCCC#Cc1ccccc1/C=N/S(=O)C(C)(C)C (stereo not drawn),-3%[11.4 µM]
N#Cc1c(N)oc(-c2ccccc2)c1-c1ccccc1,13µM*
CCOC(=O)NC(=O)CSc1nnc(C)s1,-5%
CC1=C/C(=N/O)C([C@H]2C=C(C)CC(C)(C)[C@@H]2O)C(C)(C)C1 (stereo partly drawn),-3%[11.4 µM]
O=C(NCCCCN1CCCC1)c1ccc(Cc2nc3ccccc3[nH]2)cc1,2%
CCCN1c2cccc3cccc(c23)S1(=O)=O,25µM*
O=C(CSc1nnc(Cc2cccs2)n1Cc1ccco1)Nc1ccc(Br)cc1,?
Cn1c(=O)c2c(nc(SCCN3CCCCC3)n2Cc2ccccc2)n(C)c1=O,0%
O=C(NCC1COc2ccccc2O1)c1cn(Cc2ccc(F)cc2)nn1 (stereo not drawn),0%
CC(=O)Nc1nc(-c2ccccc2)nc(C)c1C(C)=O,5%
Cc1ccc(S(=O)(=O)NCC(=O)N(CC(=O)NC2CCCCC2)Cc2ccco2)cc1,2%
COc1ccccc1NC(=O)CSc1nnc(C)n1Cc1ccccc1,8%
O=C(c1csnn1)N1CCC2(CC1)CN(c1ccccc1)C2,-7%
O=C(Cn1cnc2ccccc2c1=O)N(Cc1ccco1)c1ccc(O)cc1,1%
CCOC(=O)c1ccc(NS(=O)(=O)c2cccc3nsnc23)cc1,4%
COCc1[nH]nc2c1C1(C(=O)Nc3ccc(F)cc31)C(C#N)=C(N)O2 (stereo not drawn),-4%
COc1ccccc1-c1nnc(NC(=O)C(C)C)s1,?
O=c1c2cc(N3CCOCC3)ccc2[nH]c(=S)n1CCCN1CCN(c2ccccc2F)CC1,2%
Cc1ccc(C(C(=O)NC(C)(C)C)N(CC2CCCO2)C(=O)Cn2nnc(-c3ccc(C)o3)n2)cc1 (stereo not drawn),-9%
COc1ccc(-n2c(=O)c(-c3cn(C)c4ccccc34)nc3cnc(N4CCNCC4)nc32)cc1,3%
CCOC(=O)c1c(C)[nH]c(C(=O)OCC(=O)N2CCN(S(=O)(=O)c3ccccc3)CC2)c1C,4%
Nc1ncnc2nc(Cl)[nH]c12,-7%

# Among those listed so far, four have a cyano group.
compound,HSD17B inh
N#Cc1ccc(CN2CCCC3(CCN(C(=O)c4ccncc4)CC3)C2)cc1,5%
N#CC1=C(N)OC2=C(C(=O)CCC2)C12CCN(C(=O)OCc1ccccc1)CC2,?
N#Cc1c(N)oc(-c2ccccc2)c1-c1ccccc1,13µM*
COCc1[nH]nc2c1C1(C(=O)Nc3ccc(F)cc31)C(C#N)=C(N)O2 (stereo not drawn),-4%

# The results go on.
compound,HSD17B inh
Clc1cccc2sc(N3CCCCC3)nc12,0%
O=C(CSc1nc2ccccc2c(=O)n1CC1CCCO1)NCC1CCCO1 (stereo not drawn),1%
CC(C)n1c(N2CCN(CC(=O)NCc3cccs3)CC2)nc2ccccc21,-4%
CCn1c(C)c(C(C)=O)c(N2CCC(C(N)=O)CC2)nc1=S,-5%
O=C(CSc1ncc(-c2ccc(F)cc2)n1Cc1ccco1)Nc1ccc2c(c1)OCO2,-2%
CC(=O)c1ccc(NC(=O)c2noc3c2CCCCC3)cc1,-1%
CCOC(=O)C(NC(=O)CC)(Nc1ccc(S(=O)(=O)Nc2ncccn2)cc1)C(F)(F)F (stereo not drawn),-5%
CCN(CC)c1ccc(NC(=O)CN2CCN(CC(=O)Nc3ccc(F)cc3)CC2)cc1,-1%
CCOC(=O)c1c(N)sc(C(=O)N2CCOCC2)c1C,9%
COc1ccc(C(=O)NC2CC3CCCC(C2)N3CC(C)C)cc1OC (stereo not drawn),-7%
Cc1csc(-c2cnn(-c3ccccc3)c2NC(=O)c2ccccc2)n1,13%
Cc1cc(-c2nnc3n2CCCCC3)c(C)n1-c1ccccc1,2%
COc1ccc(CCn2c(N)c(S(=O)(=O)c3cccs3)c3nc4ccccc4nc32)cc1OC,1%
COCCNc1nc(-c2ccccc2C)nc2ccccc12,?
CCOCCCNC(=O)C1CCN(C(=O)Nc2ccc(C)cc2)CC1,-2%
O=C(CN1C(=O)c2ccccc2C1=O)Nc1ccc(N2CCOCC2)cc1,11%
c1nc(N2CCN(Cc3ccc4c(c3)OCO4)CC2)c2[nH]cnc2n1,16%
Cc1ccc(-c2nnc3n2N=C(c2ccccc2)CS3)cc1,4%
Cc1nc(N=Nc2ccc(C(=O)O)cc2)c(COP(=O)(O)O)c(C=O)c1O,?
CN1CCN(C(=O)c2ccc3ccccc3c2)CC1,1%

# 2 entries from above, field by field.
SMILES: COCCNc1nc(-c2ccccc2C)nc2ccccc12
  HSD17B inh = ?

SMILES: CCOCCCNC(=O)C1CCN(C(=O)Nc2ccc(C)cc2)CC1
  HSD17B inh = -2%
